RecA splice inh – inhibitors of M. tuberculosis RecA intein splicing; inhibition, %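 (about 9 µM by stock and volumes)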; cell-free RecA intein splicing, fluorescence; P9WHJ3; 290,000 compounds, 0.75% hits; in the data active = inhibition above about 30%; inconclusive = no clear call, values can overlap the other calls;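 note: 0% = vehicle wells and 100% = reference inhibitor control wells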
Target sequence (P9WHJ3 whole entry, looked up, canonical isoform): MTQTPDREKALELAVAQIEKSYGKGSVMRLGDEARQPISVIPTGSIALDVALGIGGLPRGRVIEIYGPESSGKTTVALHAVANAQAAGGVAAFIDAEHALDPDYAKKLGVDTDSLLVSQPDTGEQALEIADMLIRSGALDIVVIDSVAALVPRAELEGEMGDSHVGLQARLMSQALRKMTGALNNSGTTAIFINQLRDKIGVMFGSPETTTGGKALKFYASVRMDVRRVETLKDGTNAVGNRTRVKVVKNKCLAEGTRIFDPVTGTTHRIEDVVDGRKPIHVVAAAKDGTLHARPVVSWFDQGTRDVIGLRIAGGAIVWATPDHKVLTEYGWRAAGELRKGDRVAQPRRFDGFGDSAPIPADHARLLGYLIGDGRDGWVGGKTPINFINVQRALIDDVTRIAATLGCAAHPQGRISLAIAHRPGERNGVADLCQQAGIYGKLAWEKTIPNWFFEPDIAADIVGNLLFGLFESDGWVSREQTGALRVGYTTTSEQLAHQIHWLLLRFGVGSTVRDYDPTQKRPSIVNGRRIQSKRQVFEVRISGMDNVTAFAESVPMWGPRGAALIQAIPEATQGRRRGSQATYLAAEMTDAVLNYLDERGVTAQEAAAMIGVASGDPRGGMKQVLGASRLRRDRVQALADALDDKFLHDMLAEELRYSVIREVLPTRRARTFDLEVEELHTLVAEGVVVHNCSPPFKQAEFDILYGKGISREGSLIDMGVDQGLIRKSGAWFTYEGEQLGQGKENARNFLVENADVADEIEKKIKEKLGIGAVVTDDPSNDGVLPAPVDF
Arbovirus anti – blocks arbovirus infection; inhibition, % at 10 µM; arbovirus infection cell-based antiviral screen; 200,000 compounds, 0.37% hits;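 active = inhibition from about 30%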;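 note: bluetongue infection of BSR cells; cell survival read as ATP light after 72 h; 0% = infected wells without compound and 100% = uninfected wells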
YopH inh – blocks Yersinia enterocolitica YopH tyrosine phosphatase | inhibition, %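 (about 10 µM by stock and volumes)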 | AID 898 | 140,000 compounds, 0.16% hits | fluorescence Ex485/Em525;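 active = inhibition of 50% or more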;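 note: controls were vehicle for no effect and minimum signal wells for full effect; inactives centre near -20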
Mtb H37Rv – M. tuberculosis H37Rv growth inhibitors, H37Rv strain (AID 1626); M. tuberculosis H37Rv growth inhibition; higher % means a stronger effect; inhibition, % at 10 µM, or IC50 in µM where a hit was titrated; 220,000 compounds, 0.95% hits;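 active = confirmed in a dose series; inconclusive = inhibition above 80% but not taken into the dose series; inactive = below 80% or under 30% at every dose of the series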;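 note: bacteria incubated seven days before Alamar blue readout; 0% = bacteria only wells and 100% = bacteria with antibiotic wells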
Mtb betalactam – beta-lactam sensitization of Mtb H37Rv | M. tuberculosis H37Rv growth with meropenem, percent inhibition; hits of this screen are not shown here | inhibition, % at 25 µM | 330,000 compounds, 0.27% hits | AID 434955;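 active = about 74% or more and at least 40 points above the plate without the antibiotic, then above 30% in a dose series; inconclusive = first-round hits that could not be retested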;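 note: growth measured after seven days incubation then overnight dye step; 0% = bacteria only wells and 100% = bacteria with antibiotic; twin plates without the antibiotic show which effects depend on it; some results filed as inactive read as strong as hits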
* = called active by the depositor; u = inconclusive; x = not tested or not shown.

SMILES | RecA splice inh | Arbovirus anti | YopH inh | Mtb H37Rv | Mtb betalactam
O=C(CN1C(=O)NC2(CCCC2)C1=O)Nc1ccc(S(=O)(=O)N2CCOCC2)cc1 | -2.7 | 13 | x | x | 2
COc1cccc(C(=O)NC(=S)Nn2cnnc2)c1OC | -0.5 | 5 | x | 1% | -1
CCC(=O)Nc1ccc(N2CCN(Cc3ccccc3F)CC2)cc1 | -1.0 | -2 | -46 | -2% | -12
CN1C(=O)c2ccc(C(=O)NC3CCCCC3)cc2C1=O | x | -3 | -1 | 4% | -3
COc1cc(Cl)ccc1OCc1cc(C(=O)NC2CCc3ccccc32)no1 (stereo not drawn) | -2.7 | x | x | x | u
Cc1ccc(/C=C2/SC(=S)N(CCC(=O)NCCCN3CCOCC3)C2=O)cc1 | 4.9 | x | x | x | u
N#C/C(=C\c1ccco1)c1nc2ccccc2s1 | 8.7 | 2 | -24 | 5% | -2
COc1ccccc1NS(=O)(=O)c1ccc2oc(SCc3ccc(C#N)cc3)nc2c1 | 1.9 | 13 | -25 | 8% | 0
CCOc1ncccc1C(=O)Nc1nc(C(C)(C)C)cs1 | -0.8 | 10 | x | 0% | -5
COc1ccccc1CC(=O)Nc1ccc(S(=O)(=O)N2CCCCC2)cc1 | 3.3 | x | x | x | 7
c1cc(-c2cn(C[C@H]3CC[C@@H]([C@@H]4CC[C@H](Cn5cc(-c6ccsc6)nn5)O4)O3)nn2)cs1 | -0.4 | x | x | x | 2
CN(Cc1ccccc1)C(=O)Nc1ccc(Cl)cc1 | 1.1 | x | x | x | -1
CNc1nc(-c2c[nH]c3ccccc23)cs1 | 13 | -11 | 3 | -5% | -6
CCc1ccccc1NC(=O)CCNS(=O)(=O)c1ccc2c(c1)CCC(=O)N2 | -2.0 | x | x | x | -1
O=C(CCc1ccccc1)C(=O)N1CCCC(C(=O)c2cccc(Cl)c2)C1 (stereo not drawn) | 1.8 | -1 | x | -5% | 2
NC(=O)NC(=O)COC(=O)CN1C(=O)C2CCCCC2C1=O (stereo not drawn) | -4.3 | 0 | -49 | 10% | 19
Cc1c(NC(=O)COC(=O)Cc2ccc(F)cc2)c(=O)n(-c2ccccc2)n1C | -1.2 | x | x | x | 1
O=C(CCSc1ccc(F)cc1)Nc1ccc(-n2cnnn2)cc1 | -2.0 | 2 | -46 | 3% | -7
Cc1nn2c(=O)cc(COC(=O)c3ccc(NC(=O)C(C)(C)C)cc3)nc2s1 | 4.4 | x | x | x | u
O=C(CC1SCCNC1=O)Nc1ccc(F)c(Cl)c1 (stereo not drawn) | -2.6 | 0 | x | -2% | -8
CN1CC(=O)Nc2ccc(F)cc2C1=O | -0.7 | 2 | -18 | x | 1
CNC(=S)/N=C/NOCc1ccc(Cl)cc1Cl | 2.6 | -33 | x | u | 100
O=C(CN1CCCC1)Nc1ccc(S(=O)(=O)N2CCCCC2)cc1 | 0.2 | x | x | x | -1
Cc1ccnc(NC(=O)CNC(=O)c2ccco2)c1 | 0.8 | x | x | x | 0
COc1ccccc1N1CCN(C(=O)CN(c2ccc(C)c(C)c2)S(C)(=O)=O)CC1 | -0.4 | 1 | 1 | -4% | 0
O=C(Nc1nnc(S(=O)(=O)N2CCOCC2)s1)c1ccc(F)cc1 | -0.9 | x | x | x | 0
COC(=O)/C=C1\OC(c2ccccc2)=CC1=O | 2.0 | -5 | -23 | 5% | 0
O=C(Nc1ccccc1)Nc1ccccc1-n1ccnc1 | -1.1 | 13 | x | 2% | -6
CC1(C)C([N+](=O)[O-])C(c2ccc(O)cc2)NC(c2ccc(O)cc2)C1[N+](=O)[O-] (stereo not drawn) | -2.7 | 9 | -42 | 5% | -3
O=C(Cn1cncn1)N/N=C/c1c2ccccc2cc2ccccc12 | -18 | -7 | -4 | 7% | 18
CCN1C(=NCCc2cccs2)N[C@@H](c2cccs2)C(C(=O)OC)=C1C | 0.8 | x | x | x | -1
CC(=O)c1nn(-c2ccc(Br)cc2)cc1C(=O)c1ccccc1 | -1.7 | -13 | -29 | -1% | 1
CCC1CN(C(=O)N2CCC(C(=O)NCCc3ccc(OC)cc3OC)CC2)c2ccccc2O1 (stereo not drawn) | 0.4 | x | x | x | -5
COc1ccc(/C=C/C(=O)Nc2cc(C)nn2-c2nc3ccccc3[nH]2)cc1 | -1.6 | -9 | -20 | 11% | 9
Cc1ccc(-n2ncc3c(=O)[nH]c(SCC(=O)N4CCOCC4)nc32)cc1 | -2.5 | 5 | -59 | x | -7
CCOc1ccc(CCNC(=O)CCc2nc3ccccc3[nH]2)cc1OCC | -2.3 | -5 | x | -5% | -9
CC(C(=O)Nc1ccccc1)N1CCN(c2ccccn2)CC1 (stereo not drawn) | -0.9 | x | x | x | -2
Cc1ccc(NCN2C(=O)C3C4C=CC(C4)C3C2=O)cc1 (stereo not drawn) | 1.3 | 1 | 0 | 0% | 10
CCCOc1ccc(CN(C)c2ncnc(N)n2)cc1 | -0.5 | x | x | x | 23
CCC(CC)C(=O)OCC(=O)Nc1ccc(S(=O)(=O)N2CCOCC2)cc1OC | 17 | 5 | -15 | -1% | 9
CC1=NNC(=O)C1CC(=O)N/N=C/c1ccncc1 (stereo not drawn) | 0.8 | x | x | 4% | -6
CC(=O)Nc1cc(C(=O)c2ccccc2)ccc1N1CCOCC1 | 1.9 | 9 | -10 | -8% | 0
O=C(/C=C/c1cccc([N+](=O)[O-])c1)NC(=S)Nc1ccccc1C(=O)O | x | -7 | x | -3% | x
COc1ccc(Nc2cc(Cl)nc(N)n2)cc1OC | -3.5 | 5 | x | -2% | -6
O=C(O)c1ccc([N+](=O)[O-])c2c1C(=O)c1ccccc1C2=O | 47* | x | x | x | -2

Among those listed so far, two have a thiophene ring, fused or not.
SMILES | RecA splice inh | Arbovirus anti | YopH inh | Mtb H37Rv | Mtb betalactam
c1cc(-c2cn(C[C@H]3CC[C@@H]([C@@H]4CC[C@H](Cn5cc(-c6ccsc6)nn5)O4)O3)nn2)cs1 | -0.4 | x | x | x | 2
CCN1C(=NCCc2cccs2)N[C@@H](c2cccs2)C(C(=O)OC)=C1C | 0.8 | x | x | x | -1

Following part.
SMILES | RecA splice inh | Arbovirus anti | YopH inh | Mtb H37Rv | Mtb betalactam
CCc1nc(=O)c(-c2ccccc2)c(C)n1-c1ccccc1 | -2.0 | x | x | x | 1
CCOC(=O)Cc1csc(NC(NC(=O)OCC)(C(F)(F)F)C(F)(F)F)n1 | -2.6 | 7 | -32 | -6% | -11
COc1ccc(C)cc1S(=O)(=O)N(CC(=O)Nc1cc([N+](=O)[O-])ccc1C)c1ccc(C)c(C)c1 | -3.7 | 14 | -31 | 5% | 4
COC(=O)c1cccc(OC(N)=O)c1 | -1.1 | 1 | -30 | 73µM* | 96
CCC1CCCCN1C(=O)CCn1ccnc1 (stereo not drawn) | -0.6 | 2 | x | 1% | 2
Cc1ccc(-c2c3c(=O)n(C)c(=O)n(C)c3cn2-c2ccccc2O)cc1 | 0.5 | -7 | -15 | 7% | 3
COc1ccc2ccccc2c1/C=N/NC(=O)c1cc(C)[nH]n1 | -0.8 | x | x | x | 2
CNc1c(NC(=O)c2ccc3c(c2)OCO3)c(=O)oc2ccccc12 | 0.7 | x | x | x | -2
O=S(=O)(Nc1ccc(N2CCOCC2)cc1)c1ccc(F)cc1F | -3.5 | -13 | x | -8% | -5
CCN(CC(=O)NCc1ccc(Cl)cc1)C(=O)COc1ccc(C)cc1C | 2.7 | x | x | x | -12
COc1ccc2c(C)cc(C)nc2n1 | 0.9 | x | x | -12% | -5
CC(Oc1cccc(Br)c1)C(=O)N1CCCN(C)CC1 (stereo not drawn) | 3.3 | x | x | x | -5
COC(=O)c1c[nH]n2c(=O)cc(CCl)nc12 | -0.4 | -3 | 4 | -10% | 14
Cc1ccc(NC2c3ncccc3C(=O)N2C2CCCCC2)cc1 (stereo not drawn) | 1.0 | 11 | -40 | 11% | 4
CC1(C)C(c2ccccc2)=NC(c2cccnc2)N1O (stereo not drawn) | -1.8 | 6 | -22 | -20% | -21
CC1(C)CC(=O)C2=C(C1)OC(/N=C/N1CCOCC1)=C(C#N)C2c1ccccc1 (stereo not drawn) | 2.3 | 4 | -24 | 1% | -6
Cc1ccc(NC(=O)Cc2nnc(SCC(=O)Nc3nncs3)n2C)cc1 | 0.2 | x | x | x | 5
CC(C)C[C@H](N)C(=O)N1CCC(C(=O)N[C@H](C(=O)NC(C)c2ccccc2)C(C)C)CC1 (stereo partly drawn) | 11 | x | x | x | 3
Cc1cc(C)c(S(=O)(=O)N(C)CC(=O)NCc2ccncc2)c(C)c1 | 0.8 | -3 | x | 2% | -7
S=C1NCN(C2CCCCC2)CN1CCc1ccccc1 | 0.7 | x | x | -1% | -3
S=C(N/N=C/c1ccc2ncccc2c1)Nc1ccccc1 | 3.6 | -14 | x | 6% | -6
Cc1ccc2c(c1)CC(C)N2S(=O)(=O)c1nnc(NC(=O)CC(C)C)s1 (stereo not drawn) | 0.5 | x | x | x | -2
CCOc1ccccc1N1CC(C(=O)Nc2cc(Cl)ccc2-n2cncn2)CC1=O (stereo not drawn) | -1.7 | x | x | x | -9
O=C(O)/C=C\C(=O)NCc1ccccc1 | 0.2 | 5 | -28 | -5% | -1
O=C1C2CC(O)CN2C(=O)N1c1ccccc1 (stereo not drawn) | -0.3 | 1 | x | -6% | -6
COc1ccc(CCNC(=O)C2CCCN(c3ncccn3)C2)cc1 (stereo not drawn) | -0.3 | 6 | x | 2% | -9
Cc1cccc(C(=O)NCC(=O)NC2CCC(C)CC2)c1 (stereo not drawn) | 2.3 | x | x | x | -7
CC1CC1C(=O)Nc1nc(-c2ccccn2)cs1 (stereo not drawn) | 0.9 | -13 | -14 | 2.1µM* | 83
O=C(NCC(=O)N(c1ccccc1)C(C(=O)NC1CCCC1)c1ccncc1)c1ccco1 (stereo not drawn) | -8.3 | x | -39 | -1% | -7
COc1ccc(S(=O)(=O)n2nc(OC(=O)c3cccs3)cc2NC(=O)c2cccs2)cc1 | 2.2 | 0 | x | -12% | 0
CC1CC(C)(C)NC(=S)S1 (stereo not drawn) | -0.2 | 2 | -40 | -8% | 1
COC(=S)Nc1cccc(C(F)(F)F)c1 | 0.1 | x | x | -6% | -1
Cc1ccc(S(=O)(=O)ON=C2CCN(S(=O)(=O)c3ccccc3)CC2)cc1 | -4.6 | 4 | -5 | -9% | u
CC(=O)N1CCN(S(=O)(=O)c2cccc(C(=O)Nc3ccc(F)c(F)c3)c2)CC1 | -3.0 | x | x | x | -1
Cc1ccc(S(=O)(=O)N(C)/N=C/c2ccc(N(C)C)cc2)cc1 | 1.0 | x | x | x | 3
CN1CCN(Cc2c(O)ccc3c2oc(=O)c2ccccc23)CC1 | -5.6 | 6 | -9 | 5% | -3
CCOc1cc2[nH]c(=O)n(Cc3ccccc3)c(=O)c2cc1OCC | 1.3 | -3 | -4 | 1% | -6
CC(=O)c1sc2nc(-c3ccccc3)cc(C)c2c1N | -12 | x | x | x | 2
O=C(N/N=C/c1cccn1-c1cccc(C(=O)O)c1)Nc1ccccc1 | 0.9 | 13 | -19 | 0% | 4
COc1ccc(N2C(=O)CSC23C(=O)N2CCCc4cccc3c42)cc1 (stereo not drawn) | 1.4 | -6 | -24 | -5% | 7
CN1CCN(C(=O)c2ccc(CN(c3ccccc3)S(=O)(=O)c3ccccc3)cc2)CC1 | 0.0 | -2 | x | -12% | -2
O=C(CCCn1c(=S)[nH]c2ccsc2c1=O)NC1CCCCC1 | -2.6 | x | x | x | 0
CSc1cccc(NC(=O)CCNS(=O)(=O)c2ccc3[nH]c(=O)oc3c2)c1 | -2.0 | x | x | x | 3
Cc1ccccc1C(=O)c1cccn1CC(=O)NCc1ccco1 | 2.6 | -2 | -32 | -4% | -4
CCOc1cc(N2CCOCC2)c(OCC)cc1NC(=O)CN1C(=O)C2C3C=CC(C3)C2C1=O (stereo not drawn) | -1.0 | 4 | x | 3% | -1
CC(C)[C@H](NS(=O)(=O)/C=C/c1ccccc1)C(=O)OCC(=O)NC(N)=O | -1.7 | x | x | 0% | -15
Cc1ccccc1C(OCC(O)CN1CCC(C(N)=O)CC1)c1ccccc1 (stereo not drawn) | 0.2 | x | x | x | 3
COc1ccc(CCNC(=O)c2cc([N+](=O)[O-])ccc2N2CCOCC2)cc1 | 1.6 | x | x | x | -7
CC(CO)Nc1nc(SCc2ccccc2)nc2sc3c(c12)CCC3 (stereo not drawn) | 1.5 | -30 | -11 | 7% | 23
Cc1ccc(S(=O)(=O)N(C)C)cc1NC(=O)CSc1ncn[nH]1 | -2.1 | x | x | x | -13
CCN(CC)CCNC(=O)Cc1nn(CC)c(=O)c2ccccc12 | 1.2 | 1 | -31 | -14% | -6
CCOC(=O)c1ccc2c(c1)n(CCO)c(C)[n+]2CC | 3.6 | -10 | 0 | -3% | -4
Cc1cccc(Cl)c1NC(=O)N1CCCN(c2nc3ccc(Cl)cc3s2)CC1 | -1.2 | x | x | 0% | -5
CCOC(=O)c1sc(=S)n(C)c1NC(=O)c1ccc(F)cc1 | 0.1 | -3 | -16 | -2% | -1

High-throughput results deposited in PubChem by several laboratories.

The list is partial. The share of hits here may be higher or lower than overall.
